Menin-MLL FL inh: inhibitors of human menin-MLL interaction, wild-type MLL peptide; Fluorescence polarization, fluorescein-MLL peptide displacement from menin; FP activity change, % at 61.4 µM; 290,000 tested, under 10 active; AID 1766; inconclusive = falling polarisation curve, or a change in total fluorescence; inactive = total fluorescence flat and polarisation flat or rising; no compound was filed as active; the % refers to the polarisation; negative = inhibition;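 further: % of control where 0% means no effect; inhibitors lower the polarisation; unlabelled MLL peptide was the positive control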
PINK1 expr mod: modulators of PINK1 expression. AID 624263. PINK1 immunofluorescence, high-content cytometry, 24 h. Potency, µM (top dose mostly 76.6 µM), inactives show at the top dose activation (PINK1 increase), usual class: activators. 410,000 compounds, 0.2% hits; active = well fitted activation curve with a large enough effect; inconclusive = small, poorly fitted or top-dose-only effect; inactive = flat fitted curve, though single readings scatter; cell line not stated here;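 further: potency means the concentration at half of the fitted maximal effect; % of control where 0% means no effect; nearly all actives have a fitted effect of over 65% in size; a mitochondrial uncoupler was the plate control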
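Compound titrations (5 concentrations, 24 h) on a stable cell line; DMSO and CCCP controls. Endpoint: fixed-cell PINK1 immunofluorescence with mitochondrial, cell and nuclear markers, scanned by microplate cytometer.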
D2 ag: human D2 receptor agonism in beta-arrestin assay. 360,000 compounds, 0.084% hits. DiscoveRx PathHunter D2 beta-arrestin, luminescence, 90 min; 100% = 57 uM dopamine signal. activation, % (no concentration beside the values); in the data active = activation above about 40%; inconclusive = about 15% to 40%; inactive = below about 15%; further: compound concentration not given in the record; the text of the record calls up to 30% inactive
Target sequence (P14416 whole entry, looked up): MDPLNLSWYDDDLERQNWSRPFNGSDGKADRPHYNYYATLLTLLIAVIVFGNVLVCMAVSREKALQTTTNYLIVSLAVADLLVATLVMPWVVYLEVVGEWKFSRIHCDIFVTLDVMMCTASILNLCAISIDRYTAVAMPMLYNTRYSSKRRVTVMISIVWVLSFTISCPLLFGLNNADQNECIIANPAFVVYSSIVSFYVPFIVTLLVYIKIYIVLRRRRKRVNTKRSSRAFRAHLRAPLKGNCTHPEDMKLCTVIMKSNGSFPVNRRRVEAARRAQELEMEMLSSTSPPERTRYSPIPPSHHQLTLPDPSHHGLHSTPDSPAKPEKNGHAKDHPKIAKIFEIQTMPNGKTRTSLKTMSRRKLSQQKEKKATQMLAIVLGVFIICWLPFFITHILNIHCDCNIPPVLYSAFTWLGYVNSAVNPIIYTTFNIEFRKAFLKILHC
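DiscoveRx PathHunter D2 beta-arrestin cells (2,100/well) attached overnight, then compound-stimulated 90 min at 37 C in HBSS/10 mM HEPES/0.1% Tween-20 buffer; beta-galactosidase complementation read by luminescence after 1 h at ambient temperature. Dopamine 57 uM final (EC100) as control.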
gsp antagonist: antagonizes gsp, the McCune-Albright syndrome mutation | Potency, µM (doses to about 76.9 µM), for the others: at the highest dose activity change, negative = inhibition, most hits filed as inhibitors | gsp-mutant cells, cAMP HTRF, 30 min; control for the full effect not named in the record | 340,000 compounds, 0.4% hits | AID 624288; active = falling curve of any shape with a large fitted effect; inconclusive = falling curve, mostly with a smaller effect; inactive = flat or rising curve; cell line not stated here;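 further: intracellular cAMP measured with PDE inhibitor Ro 20-1724 present during compound exposure; potency means the concentration at half of the fitted maximal effect; on the % scale 0 is the no-effect control and ±100 the full control effect; nearly all actives have a fitted effect of over 65% in size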
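HTRF cAMP read-out (cAMP-d2 plus anti-cAMP antibody-K in lysis buffer, 30 min RT). Before lysis, cells are exposed to compounds with […] for 30 min at 37C in DPBS containing Ca/Mg, BSA and Tween 20.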
gsp agonist: gsp mutant agonism; gsp mutant cells, cAMP HTRF, 30 min; control for the full effect not named in the record; Potency, µM (top dose mostly 76.9 µM), without a hit: at the top dose activation (cAMP increase), hits mostly activators; 340,000 compounds, 0.13% hits; AID 624287; active = well fitted activation curve with a large enough effect; inconclusive = small, poorly fitted or top-dose-only effect, or another doubt; inactive = no such curve, though single readings can be large or run the other way; cell line not stated here;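 further: phosphodiesterase inhibitor Ro 20-1724 added with compounds to block cAMP breakdown; potency means the concentration at half of the fitted maximal effect; nearly all actives have a fitted effect of over 60% in size; about a fifth of the inactives were tested at one dose only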
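Cells stably selected in G418 were plated at 2000/well, grown 16-24 hr, then given compounds in DMSO with the PDE inhibitor […] (300 uM solution added) for 30 min at 37C; cAMP was read by HTRF.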
ClpP mod: qHTS Assay for Activators of ClpP; Potency, µM (top dose mostly 57.5 µM), inactives show at the highest dose activity change, negative = active; 340,000 compounds, 1.9% hits; AID 651965, 2013; purified B. subtilis ClpP, FRET peptide cleavage, 20 min; active = well fitted falling curve with a large enough effect; inconclusive = small, poorly fitted or top-dose-only effect; inactive = no such curve, though single readings can be large or run the other way; further: potency means the concentration at half of the fitted maximal effect; the source files actives as falling curves though it sought activators and does not explain the sign; nearly all actives have a fitted effect of over 65% in size; many hits overshoot -100%
Target sequence (P80244 whole entry, looked up): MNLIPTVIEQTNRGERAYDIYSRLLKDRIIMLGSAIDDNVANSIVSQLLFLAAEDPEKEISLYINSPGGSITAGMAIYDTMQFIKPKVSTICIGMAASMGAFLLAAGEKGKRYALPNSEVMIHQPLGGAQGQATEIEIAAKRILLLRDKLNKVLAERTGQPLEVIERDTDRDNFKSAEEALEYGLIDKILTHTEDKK
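Purified B. subtilis ClpP, 10 microg/mL final in Tris/HCl pH8 with KCl, BSA, glycerol and Tween-20, cleaved an Abz/nitrotyrosine-quenched decapeptide. Fluorescence (ex 320, em 430) was read at 0 and 20 min at room temperature. Delta was normalized to 5.8 microM ADEP and DMSO/no-enzyme controls.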
Sfp inh: inhibitors of Bacillus subtilis Sfp phosphopantetheinyl transferase; Q9F4F7; Biochemical Sfp PPTase activity, qHTS; Potency, µM, without a hit: max response, negative = inhibition, usual class: inhibitors; 310,000 compounds, 3.5% hits; AID 1490; active means well fitted inhibition curve with a large enough effect; inconclusive means small, poorly fitted or top-dose-only effect, or another doubt; inactive means no such curve, though single readings can be large or run the other way;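 further: the enzyme is Sfp with the accession as filed and its product quenches rhodamine fluorescence; potency means the concentration at half of the fitted maximal effect; 0% = enzyme reaction without inhibitor and -100% = no enzyme wells; top concentration of the series not given in the record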
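Sfp 15 nM + cpd, 15 min RT; start w/ rhodamine-CoA 5 uM, BHQ-2-YbbR 12.5 uM (final); 50 mM Hepes pH 7.6, 10 mM MgCl2, 0.01% NP-40, 0.01% BSA; read 525/598 nm at 0 and 30 min.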
Active calls of the source: *; ? = inconclusive; / = no result given; & = joins results of further samples; [ ] = dose if it differs, or a comment. No enrichment for hits; overall some 5.1% were active at least once.

#1 CCOC(=O)N=Nc1c(O)n(CC(=O)OC)c2ccccc12
#2 C=CCn1c(=N)c(C(=O)NCCCOC)cc2c(=O)n3cccc(C)c3nc21
#3 CCOc1ccc(-c2cc(CCCC(=O)NCc3ccc(C)cc3)no2)cc1
#4 O=C(O)CCCn1cc(NC(=O)c2ccc(F)cc2)cn1
#5 COc1ccccc1C(=O)C1CCCN(C(=O)c2cccc(-n3cccn3)c2)C1 (stereo not drawn)
#6 C=CCN(CC=C)C(=O)C1CCN(S(=O)(=O)c2ccc(N3CCCC3=O)cc2)CC1

assay / entry	1	2	3	4	5	6
Menin-MLL FL inh	-5.0	7.2	-1.8	-1.7	-2.2	/
PINK1 expr mod	0.8%	-0.1%	9.0%	1.2%	0.5%	0.6%
D2 ag	-1.3	-2.8	-3.8	-4.2	-4.1	1.6
gsp antagonist	-10%	12%	13%	-3%	-7%	-6%
gsp agonist	-5%[15.4 µM]	?	-27%	-2%[15.4 µM]	-1%	-33%[inhibitor]
ClpP mod	/	-11%	1.1%	/	-1.3%	0.1%
Sfp inh	7%	18%	20%	12%	14%	-1%

#7 COc1ccc(C(=O)NCC(=O)OCC(=O)N2CCc3ccccc32)cc1
#8 CC1=CC(C)(C)NC(=S)N1c1cccc(C)c1
#9 O=C(NC1CCCCC1)C(c1ccc2ncccc2c1)N(Cc1ccc(F)cc1)C(=O)c1ccc2c(c1)OCCO2 (stereo not drawn)
#10 O=C(CN1CCCN(Cc2ccc(F)cc2Cl)C1=O)NC1CCCCCC1
#11 O=C(O)c1ccccc1S(=O)(=O)NCC(O)COc1ccc(Br)cc1 (stereo not drawn)
#12 N#Cc1ccccc1NC(=O)Nc1ccccc1

assay / entry	7	8	9	10	11	12
Menin-MLL FL inh	-4.2	-1.6	3.0	2.8	0.9	-3.8
PINK1 expr mod	-0.2%	2.5%	3.4%[38.3 µM]	6.2%[38.3 µM]	0.7%	1.6%
D2 ag	1.1	-1.3&-0.4	-2.1	2.1	-1.2	1.3
gsp antagonist	/	-13%&-3%	-7%	-1%	7%	12%
gsp agonist	15%[15.4 µM]	17%&13%	-25%	1%	-18%	2%[15.4 µM]
ClpP mod	/	0.0%	0.2%	-0.7%	-0.7%	/
Sfp inh	18%	1%	5%	6%	34%[activator]	16%

#13 O=C(NCc1ccco1)c1ccc(C(F)(F)F)cc1
#14 CS(=O)(=O)c1ccc(S(=O)CC(=O)Oc2ccc(Cl)cc2)c([N+](=O)[O-])c1 (stereo not drawn)
#15 OC(CNC1CCCC1)COCCOc1ccc(Br)cc1 (stereo not drawn)
#16 COc1ccc(Nc2nc(C)c3ccccc3n2)cc1
#17 Cn1c(=O)n(CC(N)=O)c2ccccc21
#18 O=C(c1ccc(F)cc1)N1CCC(C(=O)N2CCN(S(=O)(=O)c3cccc(F)c3)CC2)CC1

assay / entry	13	14	15	16	17	18
Menin-MLL FL inh	0.6	-0.2	-1.0	5.6	2.9	/
PINK1 expr mod	-1.2%	-3.6%	11%	-0.8%	-0.8%	4.7%
D2 ag	3.2	-1.2	2.7	-2.0	-1.1	-2.3
gsp antagonist	-3%	-21%	18%	-2%	0%	6%
gsp agonist	-41%[inhibitor]	-2%	10%[15.4 µM]	-5%	0%	17%
ClpP mod	/	/	/	-2.4%	-2.4%	1.6%
Sfp inh	0%	?	8%	-3%	-7%	/

Part of the list above in order of number of heavy atoms, smallest number first.
#17 Cn1c(=O)n(CC(N)=O)c2ccccc21
#15 OC(CNC1CCCC1)COCCOc1ccc(Br)cc1 (stereo not drawn)
#14 CS(=O)(=O)c1ccc(S(=O)CC(=O)Oc2ccc(Cl)cc2)c([N+](=O)[O-])c1 (stereo not drawn)

assay / entry	17	15	14
Menin-MLL FL inh	2.9	-1.0	-0.2
PINK1 expr mod	-0.8%	11%	-3.6%
D2 ag	-1.1	2.7	-1.2
gsp antagonist	0%	18%	-21%
gsp agonist	0%	10%[15.4 µM]	-2%
ClpP mod	-2.4%	/	/
Sfp inh	-7%	8%	?

Additional results follow.
#19 O=C(O/N=C\c1ccc(N2CCCCC2)c([N+](=O)[O-])c1)c1cccc(C(F)(F)F)c1
#20 CCOc1ccc2nc(NCCCNC(=O)c3cc(OC)c(OC)c(OC)c3)c(C#N)cc2c1
#21 COc1ccc(N(C(=O)c2cccc([N+](=O)[O-])c2)S(=O)(=O)c2ccc3c(c2)n(C)c(=O)n3C)cc1
#22 Nc1ncnc2c1ncn2[C@@H]1O[C@H](CNC(=O)[C@H](N)Cc2cccnc2)[C@@H](O)[C@H]1O
#23 Cc1ccc(Cl)c(OCCCN(C)Cc2ccccc2)c1
#24 C=CCC[C@H](Cc1ccc(F)cc1)C(=O)OC[C@@H](Cc1c[nH]c2ccccc12)NC(=O)[C@@H](CC=C)CC(=O)N[C@@H](CO)Cc1ccccc1

assay / entry	19	20	21	22	23	24
Menin-MLL FL inh	-0.7	-29	4.4	/	-0.9	/
PINK1 expr mod	-2.0%	23%	12%[38.3 µM]	1.1%	11%	4.7%
D2 ag	-1.4	6.5	-1.7	-4.4	-3.6	-1.8
gsp antagonist	-9%	-6%	-19%	/	7%	-11%
gsp agonist	-23%	-55%[inhibitor]	-2%	/	-7%[15.4 µM]	/
ClpP mod	-1.2%	-11%	0.8%	-0.9%	/	-3.2%
Sfp inh	1%	-2%	9%	/	45µM*	/

#25 CC(=O)C[C@@H](O)CC(=O)[C@H]1OC(=O)[C@H](C)C/C=C\Cc2ccccc21
#26 Cc1ccc(OC(C)C(=O)N2CCc3ccccc32)cc1 (stereo not drawn)
#27 CCOc1ccc(S(=O)(=O)N(CC(=O)NCc2cccnc2)c2ccc(C)cc2)cc1
#28 O=C(O)[C@@H](c1ccccc1)N1Cc2ccccc2C1=O
#29 Cc1ccccc1Cn1ccc(NC(=O)c2nn3cccnc3c2Cl)n1
#30 C[C@]1(CC/C(=C/CO)CO)[C@H](CO)CC[C@@]23COC(=O)C2=CCC[C@@H]31

assay / entry	25	26	27	28	29	30
Menin-MLL FL inh	/	2.2	-10	0.4	3.1	/
PINK1 expr mod	-0.5%	1.6%	0.0%	0.1%	3.3%	1.6%
D2 ag	2.0	-0.1	0.1	-6.9	-3.8	-1.6
gsp antagonist	-6%	2%	4%	-2%	-3%	-10%
gsp agonist	/	1%	-9%[15.4 µM]	-16%	27%	?
ClpP mod	0.7%	-2.9%	/	-1.7%	/	-0.5%
Sfp inh	/	10%	3%	28µM*	13%	/

#31 Cc1cccc(-c2c(O)cc(=O)[nH]c2Cl)c1
#32 CNc1cc(-c2cnn(CC(C)C)c2)ncn1
#33 OC[C@@H]1CN(Cc2ccco2)C[C@H](n2cnc3c(NC4CC4)ncnc32)O1
#34 Cc1ccccc1NC(=O)/C(C#N)=C\c1cn(CC(=O)O)c2ccccc12
#35 NC(=O)C1CCCN(C(=O)CNC(=O)C23CC4CC(CC(C4)C2)C3)C1 (stereo not drawn)
#36 Cc1cc(NC(=O)COC(=O)[C@H](Cc2c[nH]c3ccccc23)NC(=O)c2ccc(F)cc2)no1

assay / entry	31	32	33	34	35	36
Menin-MLL FL inh	7.2	/	/	4.5	/	3.1
PINK1 expr mod	-0.4%	0.5%	0.4%	-0.5%	1.0%	-0.8%
D2 ag	-3.4	-3.2	-3.0	-0.1	-4.0	-2.8
gsp antagonist	?	/	/	-1%	18%	-9%
gsp agonist	-59%[inhibitor]	/	/	-26%	-7%[15.4 µM]	-25%
ClpP mod	/	?	0.1%	/	-0.6%	-9.0%
Sfp inh	?	/	/	14%	/	24%

#37 CN(C)S(=O)(=O)c1cccc(C(=O)N2CCc3ccccc32)c1
#38 CCOc1ccc(Nc2nc(N)c3ccccc3n2)cc1
#39 CC[C@]12c3[nH]c4ccc(Cl)cc4c3CCN1C(=O)[C@@H](CC(=O)NCCC1=CCCCC1)C[C@@H]2C(=O)N1CCN(C(=O)C2CC2)CC1
#40 Cc1noc(C)c1CSc1ccccc1C(=O)N1CCN(c2ccccc2)CC1
#41 Cc1ccc(S(=O)(=O)N2CCCCC2)cc1C(=O)N(C)CCOc1ccccc1
#42 COc1cccc2c1cc1c(=O)n(CC(=O)NC3CCCCC3)nc(C)n12

assay / entry	37	38	39	40	41	42
Menin-MLL FL inh	-1.5	1.4	/	2.5	/	/
PINK1 expr mod	-1.0%	11%	0.6%	-1.4%	1.1%	1.8%&1.2%
D2 ag	0.0	-1.1	-2.3	-1.9	-1.1	-1.3
gsp antagonist	2%	-6%	-12%	-4%	-17%	7%
gsp agonist	?	13%	/	23%	-1%	-21%
ClpP mod	-2.1%	/	1.2%	-0.5%	1.4%	32µM*
Sfp inh	9%	-29%	/	12%	20%	9%

#43 COC(=O)C1=C(C)N(Cc2cccnc2)C(=O)C1
#44 CN1CCN(C(=O)c2ccc3c(c2)OCCO3)CC1
#45 COc1ccc(N2CCN(C(=O)c3ccc(N(C)S(=O)(=O)c4ccc(C)cc4)cc3)CC2)cc1
#46 COc1ccc(N(CC(=O)N/N=C/c2ccc(N(C)C)cc2)S(=O)(=O)c2ccccc2)cc1
#47 Cc1cc(C(=O)N/N=C/c2ccncc2)c(C)o1
#48 Cc1cccc(S(=O)(=O)Nc2ccc(-c3nc4ccc(C)cc4s3)cc2)c1
#49 CC(=O)c1cc(-c2nc3ccccc3n2C)n(C)c1

assay / entry	43	44	45	46	47	48	49
Menin-MLL FL inh	-5.4	1.6	-0.4	4.3	4.2	1.5	1.3
PINK1 expr mod	2.0%	0.0%	-0.4%	-0.6%	-1.0%	12%	-0.9%
D2 ag	-1.4	-1.7	-0.1	4.9	5.5	3.7	-3.1
gsp antagonist	12%	14%	/	3%	-21%	-12%	6%
gsp agonist	2%	-40%[inhibitor]	14%[15.4 µM]	-7%	-4%[15.4 µM]	-28%	17%
ClpP mod	-0.4%	-2.6%	/	3.9%	2.0%	-3.3%	-1.5%
Sfp inh	0%	-6%	1%	7%	7%	-13%	17%
